Bioassay records (PubChem BioAssay)
Beta apoptosis = blocks beta cell apoptosis; protection from apoptosis, % (no concentration beside the values); INS-1E cytokine-induced death, ATP luminescence, 48 h; percent of positive-control rescue, neutral wells zero; 0.8% of 300,000 active;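 active = all replicates at 75% or more, or half of them and the mean; inconclusive = half reach 75% but not the mean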;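 note: 0% = cytokine-treated negative control wells and 100% = positive control rescue; higher means more ATP so stronger rescue from cytokine killing; wells of about 40 µL received 100 nL stock; the first replicate is given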
FGF22 binding = binders of recombinant human FGF22 by thermal shift. SYPRO orange fluorescence; percent of sucrose octasulfate shift, DMSO zero. calls only at 9.99 µM. 1.5% of 340,000 active;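 active = melting point raised past a set limit in the mean and every replicate; inconclusive = no clear call; three in four hits are not shown here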
Target sequence (Q9HCT0 whole entry, looked up): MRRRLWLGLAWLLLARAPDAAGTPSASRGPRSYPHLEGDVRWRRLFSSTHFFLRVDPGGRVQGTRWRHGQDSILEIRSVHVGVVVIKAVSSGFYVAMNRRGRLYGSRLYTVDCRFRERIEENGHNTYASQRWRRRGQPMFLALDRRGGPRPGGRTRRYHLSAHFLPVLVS
Calb FLC = C. albicans growth modulation with fluconazole; AID 1979; growth inhibition, % (test concentration not listed); C. albicans CaCi-2 (fluconazole-resistant clinical isolate) + fluconazole, Alamar Blue growth, 48 h; 0.57% of 300,000 active;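 active = most replicates above 75%; inconclusive = exactly half above 75%; inactive = most below 75%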;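 note: all wells also contain fluconazole at 8 µg/ml as a sub-toxic cotreatment; 0% = median of DMSO wells and 100% = median of geldanamycin control wells; wells of about 8 µL received 7.5 nL stock; the first replicate is given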
RanGTP-Impb inh = disruptors of Ran-importin-beta complex formation – biochemical, FRET, CFP-Ran, YFP-importin-beta, homogeneous, primary screen. 1.1% of 300,000 active. AID 2216. cell-free CFP-Ran/YFP-importin-beta FRET ratio. inhibition, % (no concentration beside the values);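 active = most replicates above 15%; inconclusive = exactly half above 15%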;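 note: 0% = DMSO wells and 100% = Ran loaded with GDP instead of GTP; wells of about 40 µL received 100 nL stock; the first replicate is given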
ALR inh = inhibitors of human sulfhydryl oxidase ALR; purified ALR, DTT oxidation, H2O2 HRP-luminol luminescence; inhibition, % (concentration not given with the values); 3.8% of 290,000 active; AID 485317;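 active = mean and each replicate at 75% or more; inconclusive = only one of the two met; inactive = neither met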;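 note: stock transfer was 7.5 nL into about 7.5 µL; 0% = neutral wells and 100% = wells with inactivated enzyme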
Target sequence (P55789 whole entry, looked up): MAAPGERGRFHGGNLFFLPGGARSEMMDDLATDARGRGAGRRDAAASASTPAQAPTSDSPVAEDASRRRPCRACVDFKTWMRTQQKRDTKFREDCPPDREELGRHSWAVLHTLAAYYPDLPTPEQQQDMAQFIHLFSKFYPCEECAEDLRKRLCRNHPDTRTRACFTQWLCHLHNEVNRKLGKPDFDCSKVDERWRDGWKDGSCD
T cruzi inh = blocks replication of Trypanosoma cruzi. T. cruzi beta-gal in NIH3T3, luminescence, 90 h. inhibition, % (test concentration not listed). 1.4% of 300,000 active. AID 1885;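 active = mean inhibition across valid replicates above about 55%, limit read from the data; inconclusive = mean below that limit but half or more replicates reach it; inactive = mean below it, under half of replicates reach it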;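 note: signal also drops with host cell toxicity which is not excluded here; 0% = plate median of DMSO wells and 100% = zero luminescence signal; higher percent means less beta-gal luminescence so fewer parasites; stock transfer was 50 nL into about 50 µL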
MLL AF4-AF9 inh = MLL-AF4/AF9 protein interaction inhibition | P42568 | 0.47% of 350,000 active | inhibition, % at 10 µM | AlphaScreen, biotin-AF4 peptide binding to FLAG-AF9;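 active = every replicate reaching a set inhibition limit, whatever the replicate mean, cut at about 25% in these data; inconclusive = mean inhibition reaches that limit but some replicates miss it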;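 note: 0% = plate neutral control median and 100% = total signal loss; the record names both 10 and 1 µM as test concentration; the first replicate is given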
Target sequence (P42568 whole entry, looked up): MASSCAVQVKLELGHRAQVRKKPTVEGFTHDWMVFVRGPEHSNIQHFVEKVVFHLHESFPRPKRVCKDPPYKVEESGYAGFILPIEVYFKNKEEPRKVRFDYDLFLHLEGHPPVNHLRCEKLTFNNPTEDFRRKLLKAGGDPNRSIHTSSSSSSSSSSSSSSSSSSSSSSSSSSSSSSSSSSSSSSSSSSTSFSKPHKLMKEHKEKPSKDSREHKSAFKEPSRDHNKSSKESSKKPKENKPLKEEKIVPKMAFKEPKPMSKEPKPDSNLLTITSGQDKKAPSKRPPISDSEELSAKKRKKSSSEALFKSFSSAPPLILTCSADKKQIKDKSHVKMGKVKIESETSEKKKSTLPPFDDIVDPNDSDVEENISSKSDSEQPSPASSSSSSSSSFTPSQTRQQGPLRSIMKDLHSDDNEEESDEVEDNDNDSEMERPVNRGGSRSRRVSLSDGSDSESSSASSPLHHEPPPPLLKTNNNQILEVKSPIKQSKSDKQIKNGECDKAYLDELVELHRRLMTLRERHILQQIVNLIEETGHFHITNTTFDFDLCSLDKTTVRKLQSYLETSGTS
Ecoli rRNA inh = inhibitors of bacterial rRNA selective over humanized ribosomes | E. coli WT GFP vs humanized-ribosome RFP mutants, fluorescence, 24 h; hits give low values; DMSO median 0, no signal -100 | GFP signal change (wild-type ribosome), % (concentration not given with the values) | 1.6% of 350,000 active | AID 720706;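 active = significant combined selectivity score with lowered wild-type GFP, culture density cut under 30%, mutant RFP and density less affected; inactive = any of these conditions unmet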; note: one replicate is shown; some compounds called inactive have numbers as strong as hits
Ecoli rRNA inh OD600 = second read-out of Ecoli rRNA inh, no call of its own (marks repeat the call); OD600 change, %; measured here: OD600 growth;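 optical density of the mix in the first replicate; 0 = DMSO median and -100 = no signal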
Ecoli rRNA inh RFP = further read-out of Ecoli rRNA inh, marked with its call; RFP signal change, %; measured here: RFP humanized mutant strains;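 first replicate; 0 = DMSO median and -100 = no signal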
* marks the source's active call; other numbers are inactive results; i = inactive; ? = inconclusive; · = no result given. A portion of the library, so the mix of outcomes need not match the whole.

SMILES | Beta apoptosis | FGF22 binding | Calb FLC | RanGTP-Impb inh | ALR inh | T cruzi inh | MLL AF4-AF9 inh | Ecoli rRNA inh | Ecoli rRNA inh OD600 | Ecoli rRNA inh RFP
CCOC(=O)N1CCC(NC(=O)CCC(=O)c2ccccc2)CC1 | 0 | · | 5 | 6.0 | 3 | -10 | · | · | · | ·
CC(=O)Oc1c(-c2ccco2)oc2ccccc2c1=O | 3 | i | 62 | 13 | 32 | -9 | 4.6 | -41 | -58 | -13
CCc1nn(-c2cc(Cl)ccc2OC)c2c1C(=O)CCC2 | 0 | · | 10 | 3.0 | -6 | -7 | · | · | · | ·
CCn1nc(NS(=O)(=O)c2ccc(NC(C)=O)cc2)c2cc3ccc(C)cc3nc21 | -1 | i | 31 | 4.9 | 36 | -7 | -1.1 | -27 | -50 | -1.3
Cc1cccn2c(=O)c3cc(C(=O)NC4CCCC4)c(=N)n(CC4CCCO4)c3nc12 (stereo not drawn) | 7 | i | 1 | 192* | 3 | 14 | -3.7 | 4 | 15 | -2.2
CC(C)CC(=O)c1c[nH]c(C(=O)NCCCn2ccnc2)c1 | · | · | -2 | 6.8 | -4 | -22 | · | · | · | ·
CCc1c(C(=O)OCc2ccccc2)[nH]c(C)c1C | · | i | -11 | -0.4 | 2 | 6 | -0.4 | -6 | 8 | 1.1
CC(=O)N=C(N)Sc1nc2ccccc2[nH]1 | 2 | · | 6 | -1.8 | -13 | -16 | · | · | · | ·
COc1ccc(C2/C=C\CN(C(=O)c3ccc(C)cc3)CC(=O)N2Cc2ccc(F)cc2)cc1 (stereo not drawn) | -1 | i | 1 | -2.7 | · | -12 | 0.5 | -33 | -37 | 32
c1ccc(-c2nnc3ccc(N4CCC5(CC4)OCCO5)nn23)cc1 | -4 | · | 22 | 7.2 | -2 | 6 | · | · | · | ·
Cc1ccc(NC(=O)CSCC(=O)N(C)CC(=O)Nc2cccc3ccccc23)cc1 | -7 | i | 18 | 6.0 | -18 | 1 | -1.5 | 4 | 4 | 0.9
COc1ccc(Cl)cc1C(=O)NCc1ccco1 | -18 | i | 2 | -0.4 | 5 | -3 | -3.4 | 8 | 14 | 10
O=C(NC1=NCCS1)c1cccc(S(=O)(=O)N2CCOCC2)c1 | 1 | i | · | · | · | · | -1.1 | 5 | 10 | -0.9
COc1cccc(OC)c1C(=O)Nc1cc(C)on1 | -1 | · | 51 | 4.7 | -3 | -11 | · | · | · | ·
Cc1[nH]c(C)c(S(=O)(=O)NCc2ccco2)c1C(=O)N1CCCCC1 | -9 | i | -23 | -0.8 | -9 | -12 | -2.5 | 10 | 9 | 0.3
OC1(Cc2ccn[nH]2)CCCCC1 | -1 | · | 0 | -0.5 | -15 | -13 | · | · | · | ·
CN(C)C=Nc1ncc2c([nH]c3ccccc32)c1C#N | -13 | · | 24 | -2.7 | 2 | -11 | · | · | · | ·
Cc1cccc(OC(=O)c2ccc3nccnc3c2)c1 | -7 | · | 4 | 0.0 | 2 | -2 | · | · | · | ·
COc1ccc(NC(=S)NNC(=O)Cn2nc(C(F)F)cc2C(F)F)cc1 | 4 | i | -12 | -2.9 | · | -4 | 2.5 | 11 | 2 | -2.5
CN(Cc1ccccc1)S(=O)(=O)c1ccc(Cl)c(C(=O)NCc2ccc3c(c2)OCO3)c1 | -2 | · | -11 | -2.4 | -5 | 8 | · | · | · | ·
O=C1Nc2ccccc2/C1=N\c1sc2c(c1C(=O)Nc1ccccc1)CCCC2 | -5 | · | -29 | 2.9 | -8 | -4 | · | · | · | ·
CCN1C(=O)c2ccccc2Sc2ccc(C(=O)NC(C)C)cc21 | -8 | i | -8 | 1.5 | 1 | -5 | 2.5 | -1 | 1 | 1.3
O=C(c1cn(-c2ccccc2)nc1-c1cccs1)N1CCN(c2ccccc2)CC1 | 4 | · | 11 | 6.3 | -7 | -2 | · | · | · | ·
CCc1c(C)nc2c(-c3ccccc3)c[nH]n2c1=O | 1 | i | -1 | 1.5 | 5 | -15 | 6.1 | -39 | -66 | -9.8
Cc1ccc(-c2csc3nc(C(C)C)oc(=O)c23)c(C)c1 | -1 | i | 0 | 0.4 | · | -18 | · | -24* | -18* | 3.3*
CCOC(=O)Nc1ccc2c(c1)N(C(=O)CN(C)C)c1ccccc1CC2 | -1 | i | · | -6.6 | 11 | -12 | -1.5 | · | · | ·
COc1ccc(CCC(=O)NNC(=O)c2cc(Cl)ccc2OC)cc1OC | 3 | i | -4 | -2.8 | · | -3 | 0.4 | 1 | -8 | -0.5
CCOc1ccc(-c2nc(-c3cccnc3)no2)cc1 | 3 | · | 18 | -0.3 | -1 | -17 | · | · | · | ·
Cc1cc(Cl)ccc1OCCCC(=O)OCC(=O)c1c(N)n(C)c(=O)n(C)c1=O | -9 | i | 2 | -0.3 | -2 | -15 | 4.0 | -42 | -47 | -8.1
Cc1ccc(C)c(NC(=O)COc2coc(CN3CCc4ccccc43)cc2=O)c1 | -6 | i | 17 | 3.2 | · | 11 | -2.6 | -2 | -1 | 5.6
Cc1ccc2nc(N(CCN3CCOCC3)C(=O)CCS(=O)(=O)c3ccccc3)sc2c1 | · | i | 8 | ? | 9 | -9 | -1.1 | 1 | 3 | -2.1
Cc1cccc(N(C(=O)CCC(=O)Nc2ccccn2)C(C(=O)NC(C)C)c2ccc(F)cc2)c1 (stereo not drawn) | 1 | i | 8 | 3.3 | -4 | -9 | -0.7 | 6 | 7 | -0.9
Cc1ccc([C@@H]2[C@@H]3C(=O)N(C)C(=O)[C@@H]3[C@]3(Cc4ccccc4)C(=O)N(Cc4ccccn4)CC(=O)N23)o1 | · | i | 30 | 3.3 | 0 | -2 | -3.5 | 1 | 12 | -12
CC1CCCC(C)N1CC(O)COCC1COc2ccccc2O1 (stereo not drawn) | 0 | · | -2 | 3.2 | 1 | 0 | · | · | · | ·
Oc1ccc(/C=N/n2c3ccccc3c3ccccc32)cc1 | -2 | · | -4 | -2.4 | 8 | 3 | · | · | · | ·
O=C(NC(=O)c1c(Cl)cccc1Cl)Nc1ccc(Oc2cccnc2)nc1 | · | i | 13 | 0.0 | -1 | · | -0.8 | -12 | -14 | 1.3
CCC(c1nnnn1Cc1ccc(F)cc1)N1CCN(C)CC1 (stereo not drawn) | -8 | i | -8 | -3.7 | · | 20 | -1.9 | 18 | 27 | 1.1
CCOc1cc(N2CCOCC2)c(OCC)cc1NC(=O)CCC1CCCC1 | -2 | · | -6 | -3.9 | -14 | -1 | · | · | · | ·
O=c1c(Cl)c(N2CCN(S(=O)(=O)c3ccccc3)CC2)cnn1-c1ccccc1 | -1 | · | 0 | 2.5 | 0 | -8 | · | · | · | ·
COc1ccc(NS(=O)(=O)c2cccc(-c3nnc4n3CCCCC4)c2)cc1 | -6 | · | 3 | -2.7 | -5 | 25 | · | · | · | ·

In a second layout: 3 of the compounds above
Cc1ccc([C@@H]2[C@@H]3C(=O)N(C)C(=O)[C@@H]3[C@]3(Cc4ccccc4)C(=O)N(Cc4ccccn4)CC(=O)N23)o1
  Beta apoptosis: ·	FGF22 binding: i	Calb FLC: 30	RanGTP-Impb inh: 3.3	ALR inh: 0	T cruzi inh: -2	MLL AF4-AF9 inh: -3.5	Ecoli rRNA inh: 1	Ecoli rRNA inh OD600: 12	Ecoli rRNA inh RFP: -12
CC1CCCC(C)N1CC(O)COCC1COc2ccccc2O1 (stereo not drawn)
  Beta apoptosis: 0	FGF22 binding: ·	Calb FLC: -2	RanGTP-Impb inh: 3.2	ALR inh: 1	T cruzi inh: 0	MLL AF4-AF9 inh: ·	Ecoli rRNA inh: ·	Ecoli rRNA inh OD600: ·	Ecoli rRNA inh RFP: ·
Oc1ccc(/C=N/n2c3ccccc3c3ccccc32)cc1
  Beta apoptosis: -2	FGF22 binding: ·	Calb FLC: -4	RanGTP-Impb inh: -2.4	ALR inh: 8	T cruzi inh: 3	MLL AF4-AF9 inh: ·	Ecoli rRNA inh: ·	Ecoli rRNA inh OD600: ·	Ecoli rRNA inh RFP: ·

Next compounds.
SMILES | Beta apoptosis | FGF22 binding | Calb FLC | RanGTP-Impb inh | ALR inh | T cruzi inh | MLL AF4-AF9 inh | Ecoli rRNA inh | Ecoli rRNA inh OD600 | Ecoli rRNA inh RFP
O=C(NCc1ccc(F)cc1)c1ccc(CS(=O)(=O)Cc2ccc(F)cc2)o1 | 3 | · | 3 | -0.5 | -24 | 5 | · | · | · | ·
Cc1ccc2nc(N3CCN(C(=O)CCCC(=O)O)CC3)nc(-c3ccccc3)c2c1 | 13 | i | 49 | 17* | 6 | -3 | -5.5 | -2 | 3 | 2.8
CN(C)c1cccc(C(=O)N/N=C/c2ccsc2)c1 | 0 | · | -2 | 3.4 | 13 | 2 | · | · | · | ·
COc1ccc(C(=O)COC(=O)C2COc3ccccc3O2)cc1F (stereo not drawn) | 1 | i | · | · | · | · | -5.5 | 8 | 7 | 1.2
O=C(NC1CCCC1)C1CCCN1S(=O)(=O)c1cccc2cccnc12 (stereo not drawn) | · | i | -1 | 6.4 | 89* | -9 | 1.4 | -5 | -1 | -4.2
CN(C)c1ccc2nc3c(=O)[nH]c(=O)nc-3n(CC(O)C(O)C(O)CO)c2c1 (stereo not drawn) | -49 | i | · | -32 | -105 | -3 | -2.1 | 22 | 4 | 24
CN(C)S(=O)(=O)N1CCC(CO)(CCc2ccccc2)CC1 | 0 | i | -8 | -0.3 | -10 | -14 | -2.2 | -6 | -2 | -2.2
Nc1c(C(=O)OCC2CCCO2)c2nc3ccccc3nc2n1C1CCCCC1 (stereo not drawn) | 4 | i | 24 | 0.3 | -57 | 22 | 3.3 | 16 | 16 | 1.6
O=C(O)CCCCC1CCSS1 (stereo not drawn) | -10 | i | · | -1.6 | 57 | 3 | -4.1 | · | · | ·
CC(CSc1nnnn1-c1ccccc1)Cn1c(N2CCCC2)nc2c1c(=O)[nH]c(=O)n2C (stereo not drawn) | 3 | · | -10 | 2.5 | 14 | 32 | · | · | · | ·
CC(=O)N(Cc1ccccc1)c1ncc2c(n1)c(=O)c(C#N)c1ccccn12 | -1 | · | 4 | -46 | -5 | -10 | · | · | · | ·
CSC1=NCCN1S(=O)(=O)c1ccccc1 | -1 | i | -15 | 3.2 | -20 | -10 | -5.6 | 16 | 8 | 1.0
CC(C)NC(=O)c1ccc(N(Cc2ccc(Cl)cc2)S(C)(=O)=O)cc1 | -6 | i | 9 | 4.5 | 1 | -16 | -2.4 | 9 | 3 | -1.4
Cc1ccc(/C=N/NC(=O)c2ccccn2)s1 | 6 | i | 5 | -0.2 | 4 | -12 | 1.6 | 17 | 16 | 4.5
O=C(Nc1cc(Cl)ccc1N1CCOCC1)c1cnccn1 | -1 | · | 0 | ? | -13 | -4 | · | 2 | 10 | 6.9
CC(CC(=O)N(CCC1=CCCCC1)c1c(N)n(Cc2ccccc2)c(=O)[nH]c1=O)c1ccccc1 (stereo not drawn) | 17 | i | -4 | -0.6 | 0 | 6 | -1.7 | 2 | 14 | -1.4
CC(=O)Nc1ccc(S(=O)(=O)Oc2ccc(/C=N/NC(=O)c3ccc(Cl)cc3)cc2)cc1 | 6 | · | -3 | -1.0 | 2 | -9 | · | · | · | ·
